From PubChem BioAssay
MARV entry inh – qHTS for inhibitors of binding or entry into cells for Marburg Virus; Marburg virus pseudotyped entry inhibition, cell reporter; control for the full effect not named in the record; about a third of the inactives were read at about 46 µM; Potency, µM (series often up to 37.8 µM), inactives show top-dose activity change, negative = inhibition, hits mostly inhibitors; 300,000 compounds, 1.8% hits; active = well fitted inhibition curve with a large enough effect; inconclusive = small, poorly fitted or top-dose-only effect, or effect the other way; inactive = flat fitted curve, though single readings scatter; tested in HEK293 cells; about a fifth of its hits are not listed in these tables; note: % is set by controls: 0 for no effect and ±100 for the full control effect; luciferase read-out
RE007 growth inh – qHTS Assay for Inhibitors of the HIV-1 protein Vpr. AID 651644, 2012. S. pombe RE007 Vpr strain, BacTiter-Glo ATP luminescence, 24 h; control for the full effect not named in the record. Potency, µM (titrated, usually from 92.2 µM), for inactives: at the top dose activity change, negative = less growth. 360,000 compounds, 0.21% hits; active = well fitted falling curve with a large enough effect; inconclusive = small, poorly fitted or top-dose-only effect; inactive = no such curve, though single readings can be large or run the other way;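 note: % is set by controls: 0 for no effect and ±100 for the full control effect; nearly all actives have a fitted effect of over 50% in size; the assay follows cell death caused by Vpr and the record does not say whether a fall means rescue or toxicity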
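Fission yeast RE007 carrying one integrated HIV-1 vpr copy, seeded at OD 0.01 in PMG+AL medium with 23 nL pinned compound. Grown 24 h at 30 degrees; viability read by BacTiter-Glo luminescence after 5 min.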
Cruzain Triton – qHTS Assay for Promiscuous and Specific Inhibitors of Cruzain (with detergent) | 200,000 compounds, 0.43% hits | Potency, µM, inactives show max response, negative = inhibition, actives largely listed as inhibitors | purified cruzain, Z-FR-AMC fluorescence, 0.01% Triton | Cruzipain (Trypanosoma cruzi), P25779; active = well fitted curve in the direction sought with a large enough effect; inconclusive = small, poorly fitted or top-dose-only effect, or another doubt; inactive = no such curve, though single readings can be large; an effect the other way counts as inactive or inconclusive;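 note: plate controls were neutral wells for no effect and buffer without enzyme for full effect; nearly all actives have a fitted effect of over 40% in size; top concentration of the series not given in the record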
Target sequence (P25779 123-467 limits assumed): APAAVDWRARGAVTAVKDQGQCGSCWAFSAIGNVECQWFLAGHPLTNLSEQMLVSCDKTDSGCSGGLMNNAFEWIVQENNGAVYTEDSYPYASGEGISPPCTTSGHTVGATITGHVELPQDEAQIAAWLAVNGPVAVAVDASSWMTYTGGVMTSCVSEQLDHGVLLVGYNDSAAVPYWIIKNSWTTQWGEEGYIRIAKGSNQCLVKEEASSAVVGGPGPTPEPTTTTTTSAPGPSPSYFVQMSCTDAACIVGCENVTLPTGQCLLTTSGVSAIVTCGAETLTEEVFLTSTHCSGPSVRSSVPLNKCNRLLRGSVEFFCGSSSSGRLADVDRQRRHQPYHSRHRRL
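Enzyme 1.5 nM, Z-FR-AMC 2 uM, NaOAc 100 mM pH 5.5, DTT 5 mM, Triton X-100 0.01%; 15 min RT compound preincubation; kinetic ex360/em450, 60 s delta.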
StopGo reporter – High Throughput Screening for Foot and Mouth Disease Virus Antivirals; Potency, µM (doses to about 57.9 µM), without a hit: at the top dose signal change, negative = less light; human cells with a luciferase reporter of 2A StopGo recoding; control for the full effect not named in the record; AID 1159524, 2015; 410,000 compounds, 1.2% hits; active = well fitted falling curve with a large enough effect; inconclusive = small, poorly fitted or top-dose-only effect; inactive = no such curve, though single readings can be large or run the other way; tested in HEK293T cells; note: % is set by controls: 0 for no effect and ±100 for the full control effect; nearly all actives have a fitted effect of over 45% in size; luciferase light after 4 h
LASV entry inh – qHTS for Inhibitors of binding or entry into cells for Lassa Virus. Lassa virus pseudotype entry inhibition, cell reporter; control for the full effect not named in the record. Potency, µM (titrated, usually from 37.9 µM), inactives show at the top dose activity change, negative = inhibition, most hits filed as inhibitors. 300,000 compounds, 1.2% hits; active means well fitted inhibition curve with a large enough effect; inconclusive means small, poorly fitted or top-dose-only effect, or effect the other way; inactive means flat fitted curve, though single readings scatter; tested in HEK293 cells; note: % is set by controls: 0 for no effect and ±100 for the full control effect; nearly all actives have a fitted effect of over 50% in size; luciferase read-out
NS1 function inh – qHTS Assay for Inhibitors of Influenza NS1 Protein Function; S. cerevisiae slowed by influenza A NS1, growth recovery by OD600; AID 2326, 2010; 270,000 compounds, 0.4% hits; Potency, µM (series often up to 46.1 µM), without a hit: at the top dose activity, positive = more growth; note: actives are rising curves; nearly all actives have a fitted effect of over 50% in size
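Recovery from NS1-induced slow growth read by OD600 in budding yeast switched to galactose assay medium (pH 6.0, -URA) at 1:100 dilution. Compound 23 nl per well; the matching strain lacking NS1 serves as control.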
Cruzain noTriton – qHTS Assay for Promiscuous and Specific Inhibitors of Cruzain (without detergent); Cruzipain (Trypanosoma cruzi), P25779; purified cruzain, Z-FR-AMC fluorescence, no detergent; Potency, µM, for the others: max response, negative = inhibition, actives largely listed as inhibitors; 200,000 compounds, 2.3% hits; AID 1476, 2009; active = well fitted curve in the direction sought with a large enough effect; inconclusive = small, poorly fitted or top-dose-only effect, or another doubt; inactive = no such curve, though single readings can be large; an effect the other way counts as inactive or inconclusive;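 note: plate controls were enzyme without inhibitor for no effect and buffer without enzyme for full effect; nearly all actives have a fitted effect of over 40% in size; top concentration of the series not given in the record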
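Purified cruzain at 1.5 nM, pre-incubated 15 min with compound at room temperature in 100 mM sodium acetate pH 5.5, 5 mM DTT, 0.00005% Triton X-100. Reaction started with 2 uM Z-FR-AMC; AMC fluorescence increase over 60 s gives rate.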
SARS PLpro yeast – qHTS of Yeast-based Assay for SARS-CoV PLP; S. cerevisiae expressing SARS-CoV PLpro, growth rescue; control for the full effect not named in the record; Potency, µM (top dose mostly 32.9 µM), for the others: at the top dose activity, positive = growth rescue; 330,000 compounds, 0.19% hits; note: 0% is about no effect; nearly all actives have a fitted effect of over 55% in size; growth read by luminescence after 48 h
An asterisk follows results filed as active; ? = inconclusive; · = no result given; & = joins results of further samples; [ ] = dose if it differs, or a comment. Unless noted, calls come from the whole dose curve; as a rule, active means well fitted rising curve with a large enough effect; inconclusive means small, poorly fitted or top-dose-only effect; inactive means no such curve, though single readings can be large or run the other way. Potency is the fitted concentration of half-maximal effect. No enrichment for hits. About 4.7% of those tested had a hit in this group.

SMILES	MARV entry inh	RE007 growth inh	Cruzain Triton	StopGo reporter	LASV entry inh	NS1 function inh	Cruzain noTriton	SARS PLpro yeast
CC(=O)c1ccc(S(=O)(=O)N2CCc3ccccc3C2)cc1	-8%	0%	·	-11%	-18%	-3%	·	22%
COc1ccc(S(=O)(=O)N2CCOCC2)cc1NC(=O)COC(=O)C1=COCCO1	·	14%	·	-20%	·	4%	·	0%
CCc1ccc(C2=NN(C(=O)CCC(=O)O)C(c3cccs3)C2)cc1 (stereo unspecified)	·	-1%	·	3%	·	10%	·	10%
O=C(NC1CC1)C1=C[C@H](c2ccc(C(F)(F)F)cc2)C[C@H](OCc2ccc(CO)cc2)O1	·	-9%	·	-13%	·	2%	·	-2%
CCOP(=O)(c1ccc(N(C)C)cc1)C(O)c1ccccc1F (stereo unspecified)	0%[46.1 µM]	-3%	·	-14%	-22%[46.1 µM]	4%	·	2%
O=C(Cc1ccccc1)O/N=C1\CCCc2ccccc21	?	13%	·	-15%	6%	·	·	-4%
O=[N+]([O-])C1=CC=C2C(=NC3(CCCCC3)N2O)C1=NC1CCCCC1	2%	12%	1.2%	·	-1%	1%	-1%	1%
COc1ccc(C(=O)NNC(=O)c2ccc3ccccc3c2O)cc1	·	-5%	·	-10%	·	4%	·	20%
Cc1c(CNC2CCCCCC2)c(C(=O)O)c(C)n1Cc1ccc(F)cc1Cl	2%[46.1 µM]	·	-3.0%	0%	3%[46.1 µM]	·	5%	·
O=C(CN1CCCCC1)NCCNc1ccc(C(F)(F)F)cc1[N+](=O)[O-]	?	-9%	-2.7%	-16%	1%	3%	6%	-4%
CN(C)c1ccc(CNC(=O)c2sc3ncccc3c2-n2cccc2)cc1	·	·	-0.6%	-34%	?	·	11%	·
O=C(NCCN1CCCCC1)Nc1ccc(F)c(Cl)c1	-10%	-5%	2.1%	13%	44%[14.3 µM]	-5%	-6%	1%
Cc1ccc(NCC(=O)Nc2ccc(Br)cc2)cc1F	-36%	-5%	-6.5%	25%	24%	-21%	-3%	-20%
COc1ccccc1N1CCN(C(=O)c2cnn(-c3cccc(Cl)c3)c2C2CCN(C(=O)OC(C)(C)C)CC2)CC1	·	·	-5.1%	?	?	·	?	·
O=C(Cn1nnc(-c2ccccc2NC(=O)c2ccccc2F)n1)NC1CCCC1	-15%	17%	·	-7%	9%	-3%	·	21%
CCOC(=O)/C=c1\s/c(=C(\C#N)C(=O)NC)n(-c2ccccc2)c1=O	?	12%	-0.3%	-29%	-18%	17%	8%	2%
CCN1CC2([N+](=O)[O-])C=CC(=O)C([N+](=O)[O-])(C1)C2CC(=O)c1ccccc1 (stereo unspecified)	5%	-15%	-9.9%	-21%	11%	13%	-20%	-4%
COc1ccc(CCNC(=O)C2CCCN(Cc3nc(-c4ccccc4C)oc3C)C2)cc1OC (stereo unspecified)	?	0%	2.4%	?	-26%	-12%	4%	2%
COC(=O)C1(Cc2cc(-c3ccc(Cl)cc3)no2)CCN(C(=O)OC(C)(C)C)CC1	·	14%	·	-28%	·	-67%	·	-20%
O=C(O)c1cccc2c1C(=O)N(c1ccc3c(c1)Cc1ccccc1-3)C2=O	-3%[46.1 µM]	-19%	·	-13%	19%[46.1 µM]	·	·	·
Cc1cc(NC(=O)c2ccc(F)cc2)ccc1NC(=O)c1ccco1	3%[46.1 µM]	-4%	·	18%	?	-5%	·	1%
Cn1c(CNS(=O)(=O)c2ccc(Cl)cc2)n[nH]c1=S	12%	1%	3.4%	35%[activator]	11%	15%	-4%	3%
Cn1cc2cc([N+](=O)[O-])ccc2n1	13%[46.1 µM]	6%	·	-6%	-3%	·	·	-1%
O=C(COc1ccccc1)N/N=C/c1sc(=O)n(Cc2cccc(C(=O)O)c2)c1Cl	13%[46.1 µM]	6%	·	-5%	-8%	16%	·	7%
COc1cc(NC(=O)CSCC(=O)Nc2cccc(C(F)(F)F)c2)c(Cl)cc1Cl	?	-7%	-5.0%	·	-27%	-3%	11%	-37%
SMILES	MARV entry inh	RE007 growth inh	Cruzain Triton	StopGo reporter	LASV entry inh	NS1 function inh	Cruzain noTriton	SARS PLpro yeast
N/C(=N\NC(=O)c1ccc(F)cc1)c1cc2ccccc2oc1=O	·	7%	·	10%	·	0%	·	0%
COC(=O)CNC(=O)Cn1ccc2ccccc2c1=O	6%	-1%	0.0%	-22%	2%	2%	1%	14%
Cn1cccc1Cc1nnc(SCC(=O)Nc2nccs2)n1CCc1ccccc1	-40%	-21%	-3.7%	-20%	-6%	?	10%	2%
O=C(O)CCC(=O)N1N=C(c2c(-c3ccccc3)c3cc(Cl)ccc3[nH]c2=O)CC1c1ccccc1 (stereo unspecified)	1%[46.1 µM]	-6%	·	-8%	3%	2%	·	0%
COc1cccc(NC(=O)CN2CCN(c3ccc(F)cc3)CC2)c1	-14%	-4%	4.5%	-19%	-5%	-21%	-4%	17%
COc1ccc(C2CC(=O)C=C(NNS(=O)(=O)c3ccc(C)cc3)C2)cc1 (stereo unspecified)	?	3%	8.7%	65%[activator]	-14%	4µM*	?	5%
CCCCS(=O)(=O)N1CCCC(C(=O)Oc2ccc(Cl)cc2)C1 (stereo unspecified)	5%	0%	·	-3%	3%	11%	·	5%
CC(C)CCNc1nc(N)c([N+](=O)[O-])c(N2CCCCCC2)n1	·	9%	·	?	·	-53%	·	-3%
CCOC(=O)N1CCN(C(=O)CNC(=O)c2ccccc2F)CC1	?	3%	·	53%[activator]	16%	·	·	6%
COCC1CCN(C(=O)c2cc(COc3cccc4cnccc34)on2)CC1	-16%[46.1 µM]	-2%	·	?	-9%[46.1 µM]	-22%	·	-1%
Oc1ccc(/C=N/n2c(COc3ccccc3)n[nH]c2=S)cc1O	-24%[46.1 µM]	6%	·	-4%	·	-3%	·	10%
COc1ccc(OC)c(CN2CCN(C(=O)c3cc4ccccc4cc3O)CC2)c1	-20%	-1%	·	-10%	-13%	1%	·	5%
Cc1ccc(NC(=O)NC2CC(=O)N(c3ccc4c(c3)OCCO4)C2)cc1C (stereo unspecified)	6%	-2%	·	-14%	15%[46.1 µM]	·	·	0%
CCC(C)(NC(=O)c1ccccc1)C(=O)O (stereo unspecified)	7%	-14%	-1.6%	13%	-1%	4%	-2%	12%
CN1CCS/C1=C\C=C1/SC(=S)N(CC(=O)O)C1=O	16%[46.1 µM]	36%	·	-15%	18%[46.1 µM]	·	·	0%
O=C(Cn1ncc2c(Cl)cccc21)NCc1cccc(Cl)c1	3%[46.1 µM]	·	-3.3%	6%	16%[46.1 µM]	·	1%	·
O=C1c2cc(Cl)ccc2-c2c(O)cc(Cl)cc21	?	?	·	?	?	·	·	·
C/C=C(\C)C(=O)NCCN1C2=NC[C@H](Cc3ccc(O)cc3)N2C[C@H]1Cc1ccc(O)cc1	·	-9%	·	-16%	·	0%	·	-3%
CCOC(=O)c1cc(C(C)(C)C)oc1CN	14%	1%	1.5%	-8%	20%	2%	-6%	-1%
Cc1cccc(CN2CCN(Cc3ccc4nonc4c3)CC2CCO)n1 (stereo unspecified)	·	-10%	·	-18%	·	0%	·	0%
Cc1cccc(/C=C2/SC(=O)N(Cc3ccccc3Cl)C2=O)n1	-13%	-5%	-1.1%	·	-24%	11%	?	-4%
CCN1C(C)=C(C)S/C1=C1\SC(=S)N(C2CCCCC2)C1=O	·	1%	·	-11%	·	-2%	·	1%
CCOc1ccc(-c2cc(C(=O)OC)[nH]n2)cc1	?	-15%	·	82%[activator]	·	-12%	·	-2%
Cc1ccc(S(=O)(=O)N2CCOCC2)cc1C(=O)c1nccn1C	6%[46.1 µM]	-8%	·	7%	·	1%	·	0%
O=C1C2Sc3[nH]c(=O)sc3C(c3ccccc3)C2C(=O)N1c1ccccc1 (stereo unspecified)	13%	0%	-14%	-6%	-1%	?	?	2%
SMILES	MARV entry inh	RE007 growth inh	Cruzain Triton	StopGo reporter	LASV entry inh	NS1 function inh	Cruzain noTriton	SARS PLpro yeast
CCOC(=O)c1c(C)c(C(=O)NCc2ccco2)c(C)n1CC	-5%[46.1 µM]	3%	·	3%	11%[46.1 µM]	·	·	-3%
CCOc1cc2c(C)cc(=O)oc2cc1Cl	2%	7%	3.1%	·	-10%	-1%	7%	-4%
CCOP(=O)(OCC)c1cc(CC)ccc1O	-2%	4%	·	5%	?	6%	·	1%
CCCCc1ccc(NC(=O)COc2ccc(C(=O)Nc3ccccc3C)cc2)cc1	-25%	·	5.6%	·	7%	4%	32µM*	-23%
CC(=O)c1ccc(NC(=O)CCc2c(C)nn(-c3ccc(N4CCOCC4)nn3)c2C)cc1	·	-5%	-3.0%	16%&43%	-2%[46.1 µM]	-15%	-6%	4%
Nc1ncnc2nc(SCc3ccccc3)[nH]c12	?	-2%	-0.2%	0%	?	8%	4%	5%
Cc1cccnc1NC(=O)C1CCN(S(=O)(=O)c2ccc3c(c2)CCC(=O)N3)CC1	2%	-2%	1.7%	-22%	·	2%	2%	-3%
CC(C)N1C(=O)C2(OCCCO2)c2cc(Br)ccc21	·	5%	·	-14%	·	9%	·	1%
Brc1ccc2ncc(Br)cc2c1	-6%	0%	-7.4%	19%	-1%	-4%	17%	17%
CN(C)S(=O)(=O)c1cc(NC(=O)CNCc2ccc(F)cc2)ccc1Cl	·	5%	·	-9%	·	0%	·	0%
CN(C(=O)CCN1C(=O)/C(=C/c2ccccc2F)SC1=S)C1CCS(=O)(=O)C1 (stereo unspecified)	?	7%	·	6%	?	13%	·	-4%
CCN(CC(=O)NCCN1CCOCC1)S(=O)(=O)c1ccc(F)cc1	3%[46.1 µM]	-8%	·	-4%	15%	7%	·	1%
